# Sa growth 42C – S. aureus growth inhibition at 42 and 30 °C, primary screen, LtaS inhibitor project, RN4220, two temperatures; OD600, 20 h, 42 °C; stronger effect = lower value; relative growth, % (no concentration beside the values); actives 0.53% (n = 170,000); AID 720641, 2013;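 active = growth at 42 °C up to 50% and 20 or more points under that at 30 °C, or under 10% at both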;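 also: 300 nL library stock went into each well; scaled to the means of positive and negative controls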
# HCMV UL50-53 inh – inhibitors of HCMV UL50-UL53 interaction, biochemical, HTRF. HCMV UL50-UL53 nuclear egress complex (human cytomegalovirus). normalized percent inhibition. inhibition, % (concentration not given with the values). actives 0.15% (n = 190,000). AID 1918969, 2023;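 active = both replicates at 50% or more, plus weaker picks with an unusually low signal ratio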;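 also: stock transfer was 100 nL into about 20 µL; 0% = negative control wells and 100% = wells with untagged competitor protein; inactives centre near -12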
# GIV-Gai inh – inhibitors of GIV peptide binding to Galpha-i3, primary screen, biochemical, fluorescence polarization, FITC-GIV GBA peptide, rat Galphai3 | 90 min; stronger effect = lower value; scaled: aluminum fluoride 0%, vehicle 100% | percent of control (FP), % (concentration not given with the values) | actives 0.42% (n = 210,000);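 active = replicate mean at 85% of control or lower, very high polarization wells dropped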;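 also: wells of about 15 µL received 100 nL stock; the first replicate is given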
# Target sequence (P08753 whole entry, looked up): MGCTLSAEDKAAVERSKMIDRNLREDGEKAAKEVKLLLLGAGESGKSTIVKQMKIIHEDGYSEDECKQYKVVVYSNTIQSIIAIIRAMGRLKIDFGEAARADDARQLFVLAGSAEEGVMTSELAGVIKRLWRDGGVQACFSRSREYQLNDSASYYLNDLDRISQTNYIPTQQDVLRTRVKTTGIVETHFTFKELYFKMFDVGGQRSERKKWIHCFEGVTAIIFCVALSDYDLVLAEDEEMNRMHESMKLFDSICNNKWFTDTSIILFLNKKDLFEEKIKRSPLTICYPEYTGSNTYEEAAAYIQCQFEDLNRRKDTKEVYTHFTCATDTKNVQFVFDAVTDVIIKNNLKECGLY
# Sa growth 42C second temp – recorded beside Sa growth 42C, whose call it bears; relative growth, %; measured here: growth at 30 °C;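 optical density after 20 h as mean of two plates; 100% = untreated growth and lower means inhibition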
# The depositor's hits bear a star; · = no result given; & = joins results of further samples. An unsorted share of the library. About 0.83% of those tested had a hit in this group.
SMILES,Sa growth 42C,Sa growth 42C second temp,HCMV UL50-53 inh,GIV-Gai inh
O=C(NC1CCCCCC1)c1cc2c(Cl)nc3ccccc3c2s1,·,·,-1.7,108.5
CCOC(=O)c1cnc(SCc2c(C)cc(C)cc2C)nc1C(F)(F)F,78.6,92.2,-17.2,100.4
CCOc1ccc(-c2nn3c(CSc4ccccc4)nnc3s2)cc1OC,·,·,6.1,107.1
CCC(C)NC(=O)c1ccc2c(=O)n(Cc3ccc(OC)cc3)c(=O)[nH]c2c1 (configuration not stated),94.5,82.1,·,97.6
CNCc1cc(=O)[nH]c2ccccc12,86.3,85.1,-15.2,104.9
CCOc1ccccc1C(=O)N(Cc1ccc(N(C)C)cc1)CC1CCCO1 (configuration not stated),101.8,83.3,-38.4,103.9
COC(=O)c1sc(=S)n(-c2ccccc2)c1N,92.7,91.2,-10.6,102.6
c1nc(Nc2ccc(N3CCOCC3)cc2)c2ccsc2n1,94.2,97.7,10.7,·
CCOC(=O)c1oc2ccccc2c1COC(=O)CNC(=O)c1cccs1,93.0,90.2,-15.3,·
CCN(CC)S(=O)(=O)c1ccc(O)cc1,93.4,86.9,-32.3,·
COCCNC(=S)Nc1ccccc1,90.5,91.2,-19.7,·
O=C(NCCC1=CCCCC1)c1cc(-c2ccccn2)nc2ccccc12,94.4,78.2,·,99.8
COc1ccc(-c2onc(C)c2C)cc1S(=O)(=O)Nc1ccc(N2CCC(C)CC2)cc1,98.9,90.1,-6.8,99.4
COC(=O)C1CC23C=CNC4CCC5(c6ccccc6NC15C2C)C43 (configuration not stated),124.6,80.2,20.2,123.8
COc1ccccc1CNC(=O)[C@@H]1CCCN1S(=O)(=O)c1ccc(C)cc1,97.0,90.8,-14.8,·
CCOC(=O)c1c(C)n(-c2ccccc2)c2ccc(OC(=O)c3ccco3)cc12,89.6,72.8,-19.0,100.4
Cc1ccccc1C1CC(=O)c2c(ccc3ccccc23)N1 (configuration not stated),114.3,98.7,·,99.6
CCOC(=O)c1c(NC(=O)CCCc2nc(-c3cccnc3)no2)sc2c1CCC(C)C2 (configuration not stated),·,·,-9.4,108.2
O=C(NC1CCCC1)N1CC=C(c2c[nH]c3ccccc23)CC1,98.5,72.3,-39.9,116.6
Cc1c2cnn(CC(=O)Nc3ccc(F)cc3F)c(=O)c2c(C)n1Cc1cccc(Cl)c1,106.3,96.6,-4.9,112.0
OCCCc1nc2ccccc2n1Cc1ccc(F)cc1,111.2,90.2,-17.2,101.8
CCCCNC(=O)Cn1nnc(-c2cccc(C(F)(F)F)c2)n1,103.3,98.7,-7.0,·
CN(C(=O)c1ccc(N)cc1)c1ccccc1,97.7,94.3,-0.7,115.3
COc1ccc(C(=O)NCC(=O)c2ccccc2)cc1,111.8,78.6,10.9,100.5
O=C(NC1=NCCN1)c1c(Cl)cccc1Cl,85.3,90.0,-30.9,103.4
CCOC(=O)c1c(CN2CCCCC2C)n(C)c2cc(Br)c(OC(C)=O)cc12 (configuration not stated),98.4,93.3,5.0,107.8
CN(CCC#N)S(=O)(=O)c1cn(C)c(=O)n(C)c1=O,105.9,90.3,-14.2,106.3
Cc1ccccc1C(=O)NCC(=O)O,89.6,94.8,0.4,·
CC1=CS(=O)(=O)CC1Sc1n[nH]c(C)n1 (configuration not stated),98.2,96.4,·,99.4
Cc1ccc(C)c(CNC(=O)c2ccc3c(c2)nc2n3CCCCC2)c1,86.7,91.7,·,104.1
O=C(Nc1ccccc1-c1nc2ccccc2s1)c1ccccc1[N+](=O)[O-],·,·,-15.4,102.4
COc1ccc(OC)c(CNC(=O)c2nn(C)c3c2CSc2ccccc2-3)c1,115.2,99.9,7.1,106.7
CN(C)c1ccc(N=Cc2cccn2C)cc1,9.7*,3.2*,-49.3,·
CCOc1ccc(NC(=O)C(C)Sc2nc3c(c(=O)[nH]2)CCCC3)cc1 (configuration not stated),·,·,-27.0,100.9
Oc1oc(-c2ccccc2)nc1C1=Nc2ccccc2CC1,98.8&97.7,92.8&87.2,-3.0&-18.3,·
O=C(NC(=S)NCC1COc2ccccc2O1)c1ccc(Cl)cc1 (configuration not stated),106.4,87.1,-9.8,100.8
COc1ccc(CNc2nc3c(S(=O)(=O)c4ccccc4)nnn3c3ccc(Cl)cc23)cc1,99.9,83.5,0.5,101.6
Cc1nc(Nc2ccccc2)nc(Nc2ccccc2)c1NC(=O)c1ccc(F)cc1,·,·,6.1,103.2
CCN1C(=O)c2cc(C(=O)NCCC3=CCCCC3)nn2CC1(C)C(=O)NC1CCCC1 (configuration not stated),·,·,-8.0,102.4
CCN1Cc2cccc(C(=O)Nc3ccc(Br)cc3)c2C1=O,90.0,84.1,3.5,107.8
O=C(CCS(=O)(=O)c1ccc2c(c1)NC(=O)CS2)Nc1ccc(F)cc1F,·,·,-7.3,108.5
COc1cccc(-c2nn(C)c3sc(C(=O)N(C)Cc4ccccc4)cc23)c1,·,·,-10.7,99.5
CCN(CC)C(=S)Sc1ncnc2sc3c(c12)CCCC3,84.9,81.0,·,100.3
CC1CC(C)CN(S(=O)(=O)c2ccc(F)c(C(=O)Nc3cccc(F)c3)c2)C1 (configuration not stated),88.8,94.2,·,103.7
CCOC(=O)c1cnc2ccc(OCC)cc2c1N1CCN(c2cccc(Cl)c2)CC1,100.5,92.7,-4.4,100.0
O=C1NC(=O)C(=CN2CCN(S(=O)(=O)c3ccc(Cl)cc3)CC2)C(=O)N1,83.2,88.0,-9.0,·
NNC(=O)CNc1ccc2c(c1)OCO2,98.5,97.4,24.1,106.8
O=C(c1cccs1)N(c1ccccc1)C1C=CS(=O)(=O)C1 (configuration not stated),91.3,89.5,-26.7,101.9

# Single records, as listed above. Order of screens: Sa growth 42C, Sa growth 42C second temp, HCMV UL50-53 inh, GIV-Gai inh
# COc1ccc(CNc2nc3c(S(=O)(=O)c4ccccc4)nnn3c3ccc(Cl)cc23)cc1 reads 99.9, 83.5, 0.5, 101.6
# CCOC(=O)c1cnc(SCc2c(C)cc(C)cc2C)nc1C(F)(F)F reads 78.6, 92.2, -17.2, 100.4
# Cc1ccc(C)c(CNC(=O)c2ccc3c(c2)nc2n3CCCCC2)c1 reads 86.7, 91.7, ·, 104.1
# COc1ccccc1CNC(=O)[C@@H]1CCCN1S(=O)(=O)c1ccc(C)cc1 reads 97.0, 90.8, -14.8, ·

# Later entries:
SMILES,Sa growth 42C,Sa growth 42C second temp,HCMV UL50-53 inh,GIV-Gai inh
Cc1cc(Cl)ccc1OCC(=O)OCC(=O)c1ccc(Cl)cc1,101.5,92.0,-33.4,·
Cn1c(C(=O)NC2CC2)cc2sccc21,104.6,80.3,7.0,105.8
CN(C)C(=O)COc1ncnc2sc3c(c12)CCC3,95.5,92.0,-26.5,·
Cc1ccc(-c2noc(-c3ccc(Oc4cc(Cl)cc(Cl)c4)o3)n2)cc1,95.6,85.7,-32.3,111.8
CCOc1ccc(CCNC(=O)Cn2ncn3c(cc4sc(C)cc43)c2=O)cc1OCC,116.7,94.1,-18.5,101.6
Cc1ccccc1C(=O)Nc1ccccc1OCc1cc(=O)n2ccccc2n1,85.5,92.9,·,103.5
CNS(=O)(=O)Cc1ccc2[nH]cc(CCN(C)C)c2c1,92.7&91.0,89.1&91.2,-32.3&8.4&-15.3&-93.2,99.7
Cc1nnc2sc(-c3c[nH]c4ccccc34)nn12,·,·,5.4,105.3
CC(=O)N1CCc2cc(CNS(=O)(=O)c3ccc(C(C)(C)C)cc3)ccc21,74.3,91.5,·,100.4
Cc1ccn2c(NC(=O)C(C)(C)Oc3ccc(Cl)cc3)c(-c3ccc(F)cc3)nc2c1,100.0,88.3,·,101.2
Cc1ccc2c(c1)C(C)(C)C(=O)N2CC(=O)N1CCCCC1,·,·,-32.0,97.6
CCOC(=O)c1[nH]c2c([N+](=O)[O-])cc(OCC)cc2c1CCN1C(=O)c2ccccc2C1=O,·,·,8.3,106.1
O=C(NCCCN1CCN(c2ccccc2)CC1)c1ccc2nc(Cc3ccccc3)oc2c1,109.3,85.6,·,103.7
O=C(CSc1ccc(Cl)cc1)NCC1CCCO1 (configuration not stated),96.1,91.8,-2.1,·
O=C(Nc1n[nH]c(C(F)(F)F)n1)c1cccs1,84.2,91.2,-31.3,·
Cc1cccc(Cn2c(CN3CCC(C(=O)NC(C)C)CC3)cc3ccccc32)c1,147.3,89.6,·,110.2
COc1ccc(CC2SC(=Nc3ccccc3)NC2=O)cc1 (configuration not stated),·,·,-14.1,105.9
Cc1ccsc1/C=C/C(=O)Nc1ccccc1C(F)(F)F,84.5,84.2,-15.9,102.9
CCOC(=O)c1c(C)[nH]c(C(=O)N2CCC(CC(=O)NCc3ccc4c(c3)OCO4)CC2)c1C,·,·,-14.5,111.2
O=C(O)CC1(CC(=O)NCC(O)c2ccccc2)CCCC1 (configuration not stated),124.1,94.1,1.8,109.5
Oc1ccccc1-c1cc(C(F)(F)F)n(-c2ccccc2)n1,90.4,76.0,-17.0,·
C=CCN(C(=O)c1noc2c1CCCC2)c1ccccc1,95.8,86.7,-35.7,98.4
Nn1c(SC(C(=O)N2CCCCC2)c2ccccc2)nnc1C1CC1 (configuration not stated),100.5,88.4,-6.6,·
c1ccc2c(c1)NC(C1Nc3ccccc3O1)O2 (configuration not stated),69.3,53.1,-3.7,106.3
CCC1CCCCN1C(=O)CSc1nc2ncccc2o1 (configuration not stated),94.5,98.8,-12.9,112.3
CC1=C(NS(=O)(=O)c2cccc(C(=O)O)c2)CN(c2ccccc2)N1C,108.4,92.9,-19.1,102.7
COc1ccc(CNS(=O)(=O)c2cc3c(cc2Cl)N(C(C)=O)CCO3)cc1,105.6,100.3,·,99.8
CC(C)c1ccc(-c2cc(-c3nc4c5ccccc5ncn4n3)[nH]n2)cc1,·,·,-3.9,100.3
O=C(NCc1ccccc1Cl)c1ccc(NC(=O)N2CCSc3ncccc32)cc1,81.8,94.7,-1.2,97.2&107.1
Cc1cc(OCC(=O)Nc2ncn[nH]2)c(C)c(C)c1Br,105.7,101.4,-23.1,105.7
CN(CCOC(=O)Nc1ccccc1)c1ccc(C#N)cn1,102.0,82.8,4.7,102.4
CCc1ccc(CNC(=O)C2=C(c3ccccc3)c3cc(Cl)ccc3S(=O)(=O)N2C)cc1,·,·,-26.3,102.1
CC(SCc1ccccc1)C(=O)Nc1cccnc1 (configuration not stated),94.2,86.1,-18.3,·
CCC(C)NC(=O)c1cnc2n(c1=O)CCS2 (configuration not stated),81.6,80.2,-22.0,101.8
CC(C)(C)C1CCc2c(sc(NC(=O)CSc3nnc(-c4ccncc4)o3)c2C#N)C1 (configuration not stated),112.6,95.3,-9.1,·
Cc1ccc(N2C(=O)CC(NCc3ccc(S(N)(=O)=O)cc3)C2=O)cc1Cl (configuration not stated),98.6,96.3,5.8,106.9
CCOc1cc(C2c3c(-c4ccc(Br)cc4)n[nH]c3C(=O)N2c2ccc(Cl)cc2)ccc1O (configuration not stated),110.6,86.3,-21.3,103.8
CCCSCCCNC(=O)CN1C(=O)COc2ccc(S(=O)(=O)N3CCCC3)cc21,103.1,84.2,-18.2,104.8
CCOC(=O)N1CCC(n2c(SCC(=O)N(C)Cc3ccccc3)nc3ccccc3c2=O)CC1,98.7,78.1,-32.4,100.3
Cc1c(C(=O)Nc2ccccc2Br)oc2ccc(S(=O)(=O)N3CCCCC3)cc12,103.2,94.5,·,97.9
Cc1cccc(C(=O)NC(=O)Nc2ccc(-n3nc(C(F)(F)F)cc3C(F)(F)F)cc2)c1,96.8,93.7,-22.4,102.0
CCCN(CC(=O)Nc1ccc(F)c(F)c1F)Cc1c(C(=O)OCC)oc2ccccc12,98.2,104.3,-7.4,·
Cc1cc(C)n(C(C)CNC(=O)c2ccccc2)n1 (configuration not stated),84.0,75.9,·,97.0
CCN(C(=O)C(C)Oc1ccccc1)C1CCCCC1 (configuration not stated),108.1,75.8,-6.0,140.2
CN(C)CCNC(=O)CN1CCN(c2cc(C(=O)O)c3cc(NC(=O)C4CC4)ccc3n2)CC1,·,·,-44.0,100.2

# Arranged by molecular weight (descending): some entries from above.
SMILES,Sa growth 42C,Sa growth 42C second temp,HCMV UL50-53 inh,GIV-Gai inh
CCOC(=O)N1CCC(n2c(SCC(=O)N(C)Cc3ccccc3)nc3ccccc3c2=O)CC1,98.7,78.1,-32.4,100.3
CCCSCCCNC(=O)CN1C(=O)COc2ccc(S(=O)(=O)N3CCCC3)cc21,103.1,84.2,-18.2,104.8
CCN(C(=O)C(C)Oc1ccccc1)C1CCCCC1 (configuration not stated),108.1,75.8,-6.0,140.2

# 2 of the compounds above, with values under each structure:
# Screens in order – Sa growth 42C	Sa growth 42C second temp	HCMV UL50-53 inh	GIV-Gai inh
- CCc1ccc(CNC(=O)C2=C(c3ccccc3)c3cc(Cl)ccc3S(=O)(=O)N2C)cc1
  ·	·	-26.3	102.1
- CCOC(=O)c1cnc(SCc2c(C)cc(C)cc2C)nc1C(F)(F)F
  78.6	92.2	-17.2	100.4
